High-throughput results from PubChem BioAssay.
RGS16-Gao – modulates binding between human RGS16 and Galphao. O15492+P09471. bead-based flow cytometry RGS16-Galphao binding, fluorescence; actives lie on both sides. binding response (% of control), % at 10 µM. 220,000 compounds, 0.38% hits. AID 1441;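 active = below 25% or above 175%, edge rows of some plates excepted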;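 also: Galphao activated by GDP with aluminum fluoride before binding; 100% = wells without compound and 0% = beads without RGS; some results beyond the cut were filed as inactive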
Target sequence (O15492 whole entry, looked up): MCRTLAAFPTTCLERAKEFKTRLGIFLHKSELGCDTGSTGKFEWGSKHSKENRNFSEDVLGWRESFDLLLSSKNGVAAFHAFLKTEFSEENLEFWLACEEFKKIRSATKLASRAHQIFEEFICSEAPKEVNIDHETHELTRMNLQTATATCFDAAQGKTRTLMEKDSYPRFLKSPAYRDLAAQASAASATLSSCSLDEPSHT
Target sequence (P09471 whole entry, looked up): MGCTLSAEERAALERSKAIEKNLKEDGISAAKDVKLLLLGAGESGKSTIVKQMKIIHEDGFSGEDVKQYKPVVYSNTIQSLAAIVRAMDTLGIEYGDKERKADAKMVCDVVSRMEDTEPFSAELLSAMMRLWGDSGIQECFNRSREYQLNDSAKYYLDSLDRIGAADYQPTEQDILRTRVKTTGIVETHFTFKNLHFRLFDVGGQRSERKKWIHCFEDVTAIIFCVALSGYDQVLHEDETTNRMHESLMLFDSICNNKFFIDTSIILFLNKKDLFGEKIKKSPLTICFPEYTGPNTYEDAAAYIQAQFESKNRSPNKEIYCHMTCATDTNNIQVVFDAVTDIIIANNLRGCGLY
GALR2 ag – activates the human galanin receptor 2; O43603; GALR2-expressing cells, agonist activation read-out; activation, %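 (tested at 5 µM)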; 140,000 compounds, 0.48% hits;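 active = above mean plus 3 SD of all compounds, about 5% in these data, not always enough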;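 also: 0% = vehicle buffer wells and 100% = reference agonist at full effect; tested in CHO reporter cells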
Target sequence (O43603 whole entry, looked up): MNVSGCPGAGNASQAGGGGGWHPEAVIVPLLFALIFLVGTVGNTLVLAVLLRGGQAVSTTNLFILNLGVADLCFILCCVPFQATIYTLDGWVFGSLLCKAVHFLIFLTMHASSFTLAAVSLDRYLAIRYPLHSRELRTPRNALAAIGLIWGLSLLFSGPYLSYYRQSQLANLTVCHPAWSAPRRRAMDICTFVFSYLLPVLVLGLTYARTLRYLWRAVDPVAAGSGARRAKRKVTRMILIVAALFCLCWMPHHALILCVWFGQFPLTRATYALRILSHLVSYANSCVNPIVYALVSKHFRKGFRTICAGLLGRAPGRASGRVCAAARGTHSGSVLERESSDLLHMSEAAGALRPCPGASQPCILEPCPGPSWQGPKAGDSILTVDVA
HSV augment – increases HSV replication in cells; HSV replication augmentation in cells, fold increase; maximum fold increase; 220,000 compounds, 0.005% hits; AID 1956;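 active = peak rise of 1.5-fold or more in the series; inconclusive = self-fluorescent or not available for retest; tested in PC3 cells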;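 also: first round at 10 µM; read as green reporter fluorescence; hits show the peak of a series up to 25 µM; 1 = signal of infected wells without compound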
INS promoter inh – TRM-6 insulin promoter activity inhibition; TRM-6 cells (human fetal islet line), insulin promoter-eGFP reporter, imaging; reporter expression induced with tamoxifen; inhibition, % at 2 µM; 130,000 compounds, 0.9% hits;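 active = inhibition above the mean plus 3 SD, with well images judged a real hit on visual review, cut at about 60% in these data, passing the limit was not always enough; inconclusive = inhibition over the cutoff but images rejected on review; inactive = inhibition not above the cutoff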
PKD1 inh – blocks activity of human protein kinase D1 | Q15139 | PKD1 kinase fluorescence polarization assay | inhibition, %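 (about 10 µM by stock and volumes)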 | 200,000 compounds, 0.056% hits;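 active = inhibition of 50% or more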;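 also: controls were vehicle for no effect and a reference inhibitor for full effect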
INS promoter inh cell count – second read-out of INS promoter inh, no call of its own (marks repeat the call); normalized cell count, %; measured here: cell count, toxicity; reference of the scale not given here;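 cells exposed to compound for 48 h; stained nuclei by imaging scaled within each plate; lower means fewer cells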
HSV augment primary fold – also measured in HSV augment; calls as there; fold increase; compound at 10 µM; measured here: primary screen fold increase 10 uM; tested in PC3 cells;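 GFP signal in the first replicate; 1 = infected wells without compound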
* hit, by the source's call; i = inactive; ? = inconclusive; . = not tested or not shown; [ ] = another dose, or the depositor's remark.

SMILES	RGS16-Gao	GALR2 ag	HSV augment	HSV augment primary fold	INS promoter inh	INS promoter inh cell count	PKD1 inh
COc1ccc(/C=C/C(=O)NCCOc2ccccc2OC)cc1	104	-1.9	i	0.93	36	103	-5
COc1cc2c(cc1/C=C/C(=O)O)OC(C)C2 (stereo not drawn)	100	.	i	0.95	.	.	-1
COc1ccc(N(C(=O)CS(=O)CC(=O)Nc2ccc(F)cc2)C(C(=O)NC2CCCCC2)c2cccs2)cc1 (stereo not drawn)	109	-1.8	i	0.88	-50	82	-15
COC(=O)c1ccc(CSc2ncnc3c2nnn3-c2ccc(OC)cc2)o1	89	-0.9	i	1.1	-22	70	-29
CCOC(=O)C1=C(NC(=S)NC(=O)c2ccccc2)c2ccccc2CC1(C)C	105	-0.4	i	0.82	-26	109	23
COc1ccc(CCN2CC(O)=C(c3nc(C)cs3)C2=N)cc1OC	97	-0.1	i	1.1	-100	37	-3
CCc1ccc(CCC(=O)Nc2ccc(OC)cc2)o1	104	-1.6	i	0.97	-325	84	-11
Cn1c(Cc2ccccc2)nnc1SCC(=O)c1cccs1	96	-1.7	i	0.9	6	121	-3
CC12CCC(C(=O)N(CCC#N)CCC#N)(CC1=O)C2(C)C (stereo not drawn)	104	0.1	i	1	14	215	3
COc1ccc(-c2noc(-c3cc4ccccc4oc3=O)n2)cc1	98	0.1	.	.	18	92	-4
Cc1cccc(N(CC(=O)NC2CCCCC2)C(=O)CCCC(=O)Nc2ccccn2)c1	84	-1.0	i	0.98	60	87	-2
Cc1ccc(-c2cc(C(=O)NN)n[nH]2)o1	98	.	i	1.1	.	.	.
Cc1c(C(=O)N2CCC(C)CC2)cccc1[N+](=O)[O-]	103	.	i	0.86	.	.	-3
CN1CCN(c2nc3c(c(=O)n(C)c(=O)n3C)n2CC(N)=O)CC1	116	0.5	i	0.78	.	.	7
O=C(OCc1cc([N+](=O)[O-])cc2c1OCOC2)c1ccc2ccccc2n1	97	.	i	0.98	.	.	-5
CN(CCc1ccccn1)C(=O)Nc1ccc(F)cc1	109	-0.9	i	0.91	-13	111	-9
CC(=O)Nc1ccc(C(=O)OCc2ccc(Cl)c(Cl)c2)cc1	117	-0.4	i	1	44	126	-10
COc1ccccc1NC(=O)CN1C(=O)NC(C)(C)C1=O	103	-1.2	i	0.97	42	131	-4
Cc1cccc(CN2CCN(CC(=O)NCc3ccc(F)cc3)C2=O)c1	.	-1.7	i	1.1	.	.	-19
COc1cccc(-c2nnc(NC(=O)C(C)C)o2)c1	105	-2.4	i	0.9	.	.	-15

Sorted by SMILES length (lowest first): 13 of the compounds above.
SMILES	RGS16-Gao	GALR2 ag	HSV augment	HSV augment primary fold	INS promoter inh	INS promoter inh cell count	PKD1 inh
Cc1ccc(-c2cc(C(=O)NN)n[nH]2)o1	98	.	i	1.1	.	.	.
CCc1ccc(CCC(=O)Nc2ccc(OC)cc2)o1	104	-1.6	i	0.97	-325	84	-11
COc1cccc(-c2nnc(NC(=O)C(C)C)o2)c1	105	-2.4	i	0.9	.	.	-15
COc1ccc(/C=C/C(=O)NCCOc2ccccc2OC)cc1	104	-1.9	i	0.93	36	103	-5
Cc1c(C(=O)N2CCC(C)CC2)cccc1[N+](=O)[O-]	103	.	i	0.86	.	.	-3
CC(=O)Nc1ccc(C(=O)OCc2ccc(Cl)c(Cl)c2)cc1	117	-0.4	i	1	44	126	-10
COc1ccc(CCN2CC(O)=C(c3nc(C)cs3)C2=N)cc1OC	97	-0.1	i	1.1	-100	37	-3
Cc1cccc(CN2CCN(CC(=O)NCc3ccc(F)cc3)C2=O)c1	.	-1.7	i	1.1	.	.	-19
COC(=O)c1ccc(CSc2ncnc3c2nnn3-c2ccc(OC)cc2)o1	89	-0.9	i	1.1	-22	70	-29
CN1CCN(c2nc3c(c(=O)n(C)c(=O)n3C)n2CC(N)=O)CC1	116	0.5	i	0.78	.	.	7
O=C(OCc1cc([N+](=O)[O-])cc2c1OCOC2)c1ccc2ccccc2n1	97	.	i	0.98	.	.	-5
Cc1cccc(N(CC(=O)NC2CCCCC2)C(=O)CCCC(=O)Nc2ccccn2)c1	84	-1.0	i	0.98	60	87	-2
COc1ccc(N(C(=O)CS(=O)CC(=O)Nc2ccc(F)cc2)C(C(=O)NC2CCCCC2)c2cccs2)cc1 (stereo not drawn)	109	-1.8	i	0.88	-50	82	-15

More structures:
SMILES	RGS16-Gao	GALR2 ag	HSV augment	HSV augment primary fold	INS promoter inh	INS promoter inh cell count	PKD1 inh
N#CCCN(Cc1cccnc1)S(=O)(=O)c1ccc(S(=O)(=O)N2CCCCCC2)cc1	103	-1.0	i	0.77	.	.	7
COc1cc(OC)c(OC)cc1/C=N/NC(=S)NCCN1CCOCC1	100	.	i	1	.	.	-3
Cn1c(=O)c(=O)n(C)c2cc(S(=O)(=O)CCC(=O)N3CCOCC3)ccc21	101	-2.5	i	1	.	.	0
OC1CCCN(C(=S)Nc2ccc(SC(F)F)cc2)C1 (stereo not drawn)	118	0.2	i	1	.	.	0
CC(Oc1ccccc1)C(=O)Nc1ccccc1O (stereo not drawn)	107	-1.1	i	0.86	-17	67	0
O=C1CC(NCc2ccccc2F)C(=O)N1c1ccccc1 (stereo not drawn)	90	-1.9	i	0.75	.	.	-19
COc1ccc(CCn2c3c(c(=O)[nH]c2=O)C(NC(=O)c2cccs2)(C(F)(F)F)C(=O)N3)cc1OC (stereo not drawn)	99	-3.0	i	0.99	8	134	-4
O=C(N/N=C/c1ccc2cccnc2c1)c1nc2ccccc2c(=O)[nH]1	105	.	i	0.99	.	.	.
COc1cccc(NC(=O)CSc2nnc(-c3ccoc3C)n2CC2CCCO2)c1 (stereo not drawn)	102	-3.5	i	1.1	-6	47	-4
O=C(Nc1ccc2c(c1)OCO2)C1CCCN1C(=O)NCc1ccccc1 (stereo not drawn)	90	1.3	i	0.95	.	.	-4
CCCCNC(=O)c1cccc(NC(=O)C(=O)c2ccccc2NC(C)=O)c1	43	-2.1	i	1	53	62	-6
COc1cc(S(=O)(=O)NC2CCCCC2)ccc1F	103	-1.0	i	1	8	125	-4
Cc1cc(Br)cnc1NC(=S)Nc1ccc(F)cc1F	90	.	i	0.99	.	.	1
O=C(CNC(=O)c1ccc(-c2ccccc2)cc1)OCc1ccc(Cl)cc1	106	-1.6	i	0.89	-22	128	-10
Cc1cc(OCC(=O)c2ccc(Br)cc2)ccc1N1C(=O)CCC1=O	106	-0.6	i	0.96	0	125	-5
COc1cc(/C=C/C(=O)OCC(=O)N2CCc3ccccc3C2)ccc1O	96	1.2	i	0.93	32	120	-7
COc1ccc(NC(=S)NN2CCOCC2)cc1OC	98	-0.7	i	1	.	.	4
Nc1cccc(C(=O)O)c1	100	-1.4	i	0.82	-5	137	-8
Cc1ccc(NCc2nnc(SCC(=O)Nc3ncc(C)s3)n2CC2CCCO2)c(C)c1 (stereo not drawn)	102	0.3	i	0.97	-60	100	-2
COc1ccccc1NS(=O)(=O)c1ccc(NC(=O)c2nc3ncccn3n2)cc1	120	-1.6	i	0.95	57	148	-7
NC(=O)C1CCCN(C(=O)Nc2cccc3ccccc23)C1 (stereo not drawn)	101	-2.0	i	0.95	12	93	-4
CCOC(=O)N1CCN(C(=O)CSCc2ccc(C)cc2)CC1	104	-0.3	i	1.1	47	81	-1
CN(C)/C=C/C(=O)c1ccc(-n2cccc2)cc1	96	.	i	0.84	7	116	-5
CC1(C)C(=O)NCCN1C(=O)CC1C(=O)NCCN1CC(c1ccccc1)c1ccccc1 (stereo not drawn)	39	.	i	1	.	.	-6
N#CC1=C(N)OC2=C(C(=O)CCC2)[C@]12C(=O)N(CC(N)=O)c1ccccc12	102	-2.2	i	0.91	18	93	-7
C=C1CCC(C)C(C)(CCC2=CCOC2=O)C/C=C\C=C/1C(=O)O (stereo not drawn)	107	.	i	0.81	.	.	.
Cc1ccc2c(c1)C(=NC1CCCCC1)c1cc3ccccc3nc1-2	108	0.2	i	0.94	91*	137*	7
O=C(CCSc1nc2cc(Cl)ccc2o1)N1CCOCC1	99	-1.6	i	0.81	.	.	0
CSc1nc(-c2ccccc2)nn1S(=O)(=O)c1ccccc1	199*[activator]	-0.8	i	0.89	31	125	-6
CCOC(=O)c1sc2nccc(N(C)C)c2c1N=CNOC	76	0.6	i	0.99	-48	182	2
Cc1nc2nc(-c3ccccc3)cn2nc1C	89	-1.4	i	0.95	.	.	-7
O=C(CSc1ncn(-c2ccccc2)n1)Nc1ccc2c(c1)OCO2	101	-0.9	i	0.95	.	.	-6
Cc1c(Cl)c(-c2n[nH]c(=S)n2Cc2ccco2)nn1C	98	-2.3	i	0.98	-8	148	-5
CSc1scc2c1-c1nc(SCC(=O)C(C)(C)C)ncc1CC2	94	.	i	0.99	.	.	.
O=c1cc(/C=C/c2ccccc2)oc2c1ccc1ccccc12	62	-0.9	i	0.81	.	.	-2
COC(=O)[C@H](CCSC)NC(=O)Nc1cccc(Br)c1	95	.	i	1.1	.	.	.
CN1C(=O)/C(=C/c2cc(N=Nc3ccccc3)ccc2O)SC1=S	102	-2.8	i	0.67	.	.	-8
Cc1ccc(NC(=O)CCCc2ccccc2)nc1	100	.	i	1	.	.	-2
COCCCN1C(=O)c2ccc(C(=O)Nc3ccccc3OC)cc2C1=O	107	-5.9	i	0.95	-10	89	-5
Cc1cccc(OCCCn2c(CCNC(=O)C(C)C)nc3ccccc32)c1	.	-1.4	i	0.91	.	.	-2
O=C(CCN1C(=O)c2cccc3cccc(c23)C1=O)NCc1ccco1	113	.	i	0.92	.	.	-5
CC1CCN(C(=O)c2cc3ccccc3o2)CC1	101	-1.6	i	0.88	27	112	-7
Cn1c(=O)[nH]c(=O)c2c1nc(N1CCOCC1)n2CC(O)COc1ccccc1 (stereo not drawn)	47	-1.6	i	0.93	25	98	-7
Cn1c(N/N=C/c2c[nH]c3ccccc23)nc2ccccc21	103	-2.9	?	.	.	.	0
O=C(CC(c1ccccc1)c1cc(Cl)ccc1O)NCCN1CCOCC1 (stereo not drawn)	101	.	i	0.85	.	.	.
COc1cccc(CN2CCNC(=O)C2CC(=O)N2CCOc3ccccc3C2)c1OC (stereo not drawn)	100	.	i	1	.	.	-5
NC(=S)N/N=C/c1coc2cc(Br)ccc2c1=O	106	.	i	1	.	.	.
COc1ccc(/C=N/NC(=O)c2[nH]c3ccc(Br)cc3c2-c2ccccc2)cc1	117	0.2	i	0.78	-6	12	-2
Cc1nnc(SCC(=O)NC(=O)Nc2ccc3c(c2)OCCO3)n1N	99	.	i	0.88	.	.	.
CCOc1ccc(NC(=O)c2ccc(CSc3nnnn3C)cc2)cc1	107	0.0	i	0.91	-5	87	-8
COc1c2c(cc3oc(C)cc(=O)c13)OC(C(C)(C)OC1OC(CO)C(O)C(O)C1O)C2 (stereo not drawn)	88	-2.3	i	0.97	-5	119	5
CCn1c(C)nc2cc(S(=O)(=O)C(F)(F)C(F)C(F)(F)F)ccc21 (stereo not drawn)	96	-2.4	.	.	4	91	-5
O=C(COC(=O)/C=C/c1ccco1)NCc1ccco1	102	.	i	1	.	.	1
COc1ccc(/C=N/NC(=O)CCN2CCCCC2c2cccnc2)cc1Cn1cc([N+](=O)[O-])cn1 (stereo not drawn)	108	.	i	1.2	.	.	.
Cc1ccsc1/C=N/NC(=O)c1sccc1C	97	-0.7	i	0.9	.	.	-1
CCn1c(O)c(C#N)c(C)cc1=O	98	.	i	1.3	.	.	.
COc1ccc(-c2cc3nc[nH]c(=O)c3s2)cc1	99	-1.2	i	0.81	-35	83	6
CCC(=O)Nc1ccc(NC(=S)Nc2ccccc2)cc1	97	-1.9	i	1	29	92	9
COc1cc2c(cc1OC)C(C(C)C)=NC(C)(C)C2	107	-2.4	i	0.87	58	100	4
Cc1nc(/N=C(\N)NC(=O)NC2CCCCC2)nc2ccccc12	84	.	i	0.63	.	.	.
Remaining list, next part.
SMILES	RGS16-Gao	GALR2 ag	HSV augment	HSV augment primary fold	INS promoter inh	INS promoter inh cell count	PKD1 inh
CCN(CC)S(=O)(=O)c1cccc(C(=O)NC(C(=O)Nc2nnc(C)s2)C(C)C)c1 (stereo not drawn)	106	1.0	i	0.98	20	49	-6
Cc1cc(N2CCOCC2)nc(SCc2ccc(Cl)cc2Cl)n1	89	-1.4	i	0.85	32	126	5
Cc1ccc(S(=O)(=O)N2CCC(C(=O)N/N=C/c3ccccc3[N+](=O)[O-])CC2)cc1	104	-2.2	i	0.85	-27	197	1
COC(=O)c1sccc1N(C)S(C)(=O)=O	100	.	i	1.2	11	137	9
